PrP UTR inh: inhibition of PrP 5' UTR reporter expression; cell-based PrP 5' UTR mRNA reporter, plate reader; 0.35% of 340,000 active; inhibition, % (no concentration beside the values);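 active = every replicate at 50% or more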;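 also: 0 = median of the neutral control wells; tested in H4 reporter cells; numbers are from one replicate; inactives centre near -14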
BJeLR viability: MLPCN primary cell-based screen for lethality selective to Ras in HRASV12 cells; 0.17% of 300,000 active; AID 1554, 2009; BJeLR (HRASV12) viability, CellTiter-Glo ATP luminescence, 48 h; reference of the scale not given here; inhibition, % (concentration not given with the values);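 active = replicate mean above 50%; inconclusive = above 50% but judged a plate artefact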;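 also: 50 nL library stock added to about 25 µL; numbers are from one replicate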
Autofluor counter: counter-screen for toxin protease inhibitors: compound fluorescence | compound autofluorescence counterscreen, microsphere flow cytometry; stronger effect = higher value | fluorescence intensity (no concentration beside the values) | 3.1% of 360,000 active;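 active = at least 3 SD above the mean of all compounds, about 16000 in these data; inconclusive = too few beads counted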;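 also: 100 nL of 1 mM stock went into each well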
Sa RN4220 lethal: growth inhibition of S. aureus RN4220, primary screen, OD600; 0.33% of 330,000 active; 16 h; inhibition, % (concentration not given with the values);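 active = z-score of -3 or lower and OD600 up to 0.18 on both plates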;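 also: plate controls were untreated cells for no effect and reference antibiotic for full effect; stock transfer was 100 nL into about 80 µL; one replicate is shown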
Mtb hypoxia inh: PubChem AID 1159583 | M. tuberculosis hypoxia-regulated fluorescent reporter, fluorescence | fluorescence inhibition, % (test concentration not listed) | 0.1% of 300,000 active;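 active = 35 to 45% if threefold the growth effect, above 45% if 1.5-fold the growth effect; inactive = the rest, general growth blockers included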;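 also: wells of about 50 µL received 100 nL stock; 0% = vehicle wells and 100% = reference inhibitor wells; whole bacteria with a GFP reporter of the hypoxia response; strong numbers were not always called active; many hits fall short of the cut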
ugtP null kill: growth inhibition of ugtP-null S. aureus, primary screen, RN4220 ugtP deletion, OD600 | 16 h; some inactives read as strong as hits | growth inhibition, % (concentration not given with the values) | 0.54% of 330,000 active;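 active = z-score under -3 and OD600 up to 0.15 on both plates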;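 also: plate controls were untreated wells for no effect and antibiotic for full effect; wells of about 80 µL received 100 nL stock; the first replicate is given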
Mtb hypoxia inh growth: second read-out of Mtb hypoxia inh, no call of its own (marks repeat the call); growth inhibition, %; measured here: M. tuberculosis growth (absorbance);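 0% = vehicle and 100% = reference antibiotic; read after six days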
Numbers without * were called inactive; ? = inconclusive; / = not tested or not shown.

SMILES | PrP UTR inh | BJeLR viability | Autofluor counter | Sa RN4220 lethal | Mtb hypoxia inh | Mtb hypoxia inh growth | ugtP null kill
Cc1ccccc1NC(=O)Cc1nc(CN(C)CC(=O)Nc2cccc(F)c2)cs1 | -26.9 | / | 2818 | 1.7 | -10.1 | 1.6 | -7.1
CCN(CC)C(=O)C1CCCc2c1[nH]c1ccc(Cl)cc21 (configuration not stated) | 4.8 | 27.9 | 4608 | 4.4 | 0.8 | 0.0 | 14.1
O=C(CCc1nc2sc3c(c2c(=O)[nH]1)CCCC3)NCC(=O)Nc1ccccc1Br | -10.3 | / | 3819 | 6.9 | 6.4 | -2.2 | -2.6
Cc1ccc(NC(C(=O)c2ccccc2)c2ccccc2)cc1 (configuration not stated) | -46.7 | / | 3627 | -1.1 | 19.0 | 14.0 | 19.7
Nc1[nH]c(N=NC(=O)c2ccccc2O)c2ccccc12 | -11.5 | -0.5 | 7464 | 4.3 | 5.9 | 2.4 | -0.5
CCOC(=O)C1CN(S(=O)(=O)c2ccc(OC)cc2)c2cc(S(=O)(=O)CC)ccc2O1 (configuration not stated) | 2.3 | 7.0 | 4238 | 0.0 | 7.0 | 16.7 | 1.3
COC(=O)C1=C(c2cccc3c2S(=O)(=O)c2ccccc2-3)CC2CCC1N2C(=O)N1CCc2cc(OC)c(OC)cc2C1 (configuration not stated) | / | / | / | -0.4 | -3.7 | 5.4 | 14.6
COc1ccc(NC(C)C(=O)NN=Cc2ccccc2OCc2cccc(Br)c2)cc1 (configuration not stated) | / | / | / | 0.1 | -12.1 | -6.4 | -6.7
CCOC(=O)Nc1ccc(C(=O)Oc2ccccc2)c(O)c1 | -39.5 | 2.2 | 9578 | -2.6 | / | / | -8.8
CC(C)(C)c1ccc(C(=O)Nc2cnccn2)cc1 | -49.3 | 5.9 | 9797 | 3.2 | 7.1 | 7.0 | 3.1
COc1ccc(S(=O)(=O)N2CCc3cc4c(cc3C2C)OCCCO4)cc1 (configuration not stated) | -15.0 | -2.5 | 6729 | 2.8 | -4.4 | 4.8 | -1.4
O=C(O)C1Nc2c(C(=O)N3CCOCC3)cccc2C2C=CCC12 (configuration not stated) | -18.6 | -8.9 | 2639 | 0.5 | / | / | -5.4
COc1ccc(CC(=O)c2cc(OC)c(OC)cc2CC(=O)O)cc1OC | -14.1 | -4.8 | 2537 | 3.6 | 5.1 | 11.5 | -1.8
COc1ccccc1NC(=O)NC(=O)N(C(C)C)S(C)(=O)=O | -25.0 | -19.8 | 10931 | -1.9 | 4.4 | 5.0 | -8.3
COc1cccc(C=NNC(=O)c2nnn(-c3nonc3N)c2C(C)C)c1OCc1ccc(F)cc1 | / | / | / | -0.3 | -1.9 | 3.9 | -3.4
COc1ccccc1NC(=O)COC(=O)C1C2CC3OC(=O)C1C3C2 (configuration not stated) | 8.1 | 7.1 | 4457 | -4.5 | -4.5 | 3.1 | -4.6
C1=Nc2c(Nc3ccccc3)ncnc2Oc2ccccc21 | -17.8 | 14.4 | 8058 | 12.4 | 7.2 | 2.6 | 6.4
CCC(=O)N1CCc2cc(Br)cc(S(=O)(=O)NCCN3CCCC3)c21 | -44.4 | -1.2 | 4631 | 4.6 | 3.5 | 9.4 | 3.3
O=C(CSc1nnc(SCc2cccc3ccccc23)s1)N=Nc1c(O)[nH]c2ccccc12 | / | / | / | 3.8 | 10.5 | 4.0 | 6.0
Cc1ccc[n+](CC(=O)Nc2ccc([N+](=O)[O-])cc2)c1 | -7.0 | -10.2 | 3048 | 3.1 | 2.6 | -13.9 | 6.7
CN(c1ccccc1)S(=O)(=O)c1cc(C(=O)OCC(=O)N2CCN(C(=O)c3ccco3)CC2)ccc1Cl | -5.2 | 4.9 | 3712 | 10.6 | 14.6 | 10.3 | 7.0
CCCCCn1cc(C(=O)C(=O)N2CCOCC2)c2ccccc21 | -6.7 | 1.9 | 5949 | 3.8 | 3.1 | 1.5 | 7.5
CCCCN(C)CCNC(=O)CN1C(=O)CSc2ccc(S(=O)(=O)N3CCOCC3)cc21 | -4.3 | -6.2 | 5186 | 3.6 | 8.9 | -0.8 | 6.7
COc1cc(CC(=O)O)ccc1O | -9.3 | 5.4 | 4163 | / | / | / | /
CCOC(=O)N1CCC(NC(=O)C2CCCN(c3nc4ccccc4o3)C2)CC1 (configuration not stated) | -1.7 | 0.9 | 25111* | 4.4 | 6.5 | 4.6 | 2.2

Continuation.
SMILES | PrP UTR inh | BJeLR viability | Autofluor counter | Sa RN4220 lethal | Mtb hypoxia inh | Mtb hypoxia inh growth | ugtP null kill
Cc1ccc(CCNS(=O)(=O)c2cc3c(cc2Cl)NC(=O)CO3)cc1 | -15.6 | -4.9 | 6527 | -2.7 | 4.1 | 11.3 | -5.5
CC(=NNC(=O)CSc1nc(C)cc(C)n1)c1ccc2c(c1)OCCO2 | / | / | / | 1.8 | -8.4 | 4.9 | -4.8
CN(Cc1c(C(=O)N/N=C/c2c(F)cccc2Cl)nnn1-c1nonc1N)c1ccccc1 | 5.4 | 2.3 | 4901 | / | / | / | /
OCC(Cc1ccccc1)Nc1c2ccccc2nc2ccccc12 (configuration not stated) | -21.6 | 11.9 | 2460 | 6.3 | 7.7 | 8.4 | 0.9
C=C(C)CC1N(c2cccc(OC)c2)C(=O)C2C(C(=O)O)C3C=CC21O3 (configuration not stated) | -14.8 | -8.0 | 4568 | 1.6 | / | / | 5.0
Cc1cccc(NC(=O)CNC(=O)COC(=O)C2CC2C)c1C (configuration not stated) | -7.6 | / | 4488 | 6.7 | 7.6 | -4.1 | 4.0
CN(C)S(=O)(=O)c1cccc(N2C(=O)CC3(CCCCC3)CC2=O)c1 | -15.4 | 6.0 | 3220 | 0.3 | 0.3 | 9.0 | 2.9
COc1ccc(C(=O)NC(=S)Nc2cccc3nc(C)ccc23)cc1OC | / | 1.9 | / | 2.3 | 0.5 | 9.2 | 32.9
O=C(O)C1CC1C(=O)Nc1cc(F)ccc1F (configuration not stated) | -38.0 | -4.7 | 4176 | 1.5 | 4.0 | -7.9 | -2.2
Cc1cccc(C(=O)NCC(=O)NCC(c2cccs2)N2CCOCC2)c1 (configuration not stated) | -13.0 | 1.2 | ? | 1.8 | 2.3 | -9.3 | 3.7
CC1CCN(C(=O)C2CCC(=O)N(Cc3ccc(Cl)cc3)C2)CC1 (configuration not stated) | -8.3 | -1.6 | 5943 | 1.7 | 3.9 | 1.0 | -1.2
CCCCCN(C(=O)CCC(=O)OCc1ccccc1F)c1c(N)n(CCCC)c(=O)[nH]c1=O | -17.8 | -6.2 | ? | -3.4 | 3.6 | 4.9 | 8.5
Oc1ccc2c(c1)c1c3n2CCNC3CCC1 (configuration not stated) | -6.2 | 2.8 | 3870 | 6.7 | 13.9 | 3.7 | 8.3
Cc1ccc(N2C(=O)CS(=O)C(c3ccccc3)C2=O)cc1C (configuration not stated) | -34.5 | -2.4 | 4444 | -4.7 | -5.7 | -1.0 | 0.8
Clc1ccc(Sc2ccccn2)cc1 | -26.7 | -5.8 | 4065 | 0.8 | -8.1 | -3.5 | 6.4
Cn1c(N)c(C(C[N+](=O)[O-])c2c(F)cccc2Cl)c(=O)n(C)c1=O (configuration not stated) | -10.6 | 4.6 | 3957 | 9.9 | / | / | 9.8
COc1cc(S(=O)(=O)N(C)Cc2ccc3c(c2)OCCO3)ccc1NC(C)=O | -5.2 | / | 2876 | -0.6 | -8.1 | -8.7 | 1.9
O=C(COC(=O)CCSc1ccc(Cl)cc1)NCc1ccc(Cl)cc1 | -6.9 | 2.0 | 2170 | 0.7 | 0.2 | 8.3 | 0.6
CCCCN1CC(O)=C(c2nc(-c3ccc(Cl)cc3)cs2)C1=N | -22.3 | -2.2 | 5661 | -0.9 | 6.7 | 5.7 | -12.2
COc1ccc(NC(=O)CN(C)C(=O)CN2C(=O)C3CCCCC3C2=O)cc1 (configuration not stated) | -22.1 | -1.8 | 6916 | 6.8 | 2.5 | -2.5 | 7.1
CCOc1ccccc1NC(=O)COc1ccc(S(=O)(=O)N2CCCC2)cc1 | -2.0 | 1.1 | 4262 | 2.1 | 14.8 | 6.6 | 5.3
O=C1CNC(=S)N1c1nc(-c2ccccc2)cs1 | -39.6 | 0.9 | 2635 | -0.5 | 2.2 | 0.9 | -7.4
CC(=O)c1sc(NC(=O)CCCc2nc3ccccc3c(=O)[nH]2)nc1-c1ccccc1 | -6.7 | / | 8524 | 5.6 | 2.2 | -0.3 | 3.2
CS(=O)(=O)N(CC(=O)Nc1ccc(C(N)=O)cc1)C1CCCCC1 | -20.7 | -8.3 | 8561 | -0.9 | -0.5 | 0.5 | 3.1
CCOC(=O)N1CCC(Nc2nc3ccccc3n3cnnc23)CC1 | -10.1 | -3.3 | 5622 | 8.3 | -4.6 | 1.9 | -5.4

Some of the entries so far, as a markdown table.
| SMILES | PrP UTR inh | BJeLR viability | Autofluor counter | Sa RN4220 lethal | Mtb hypoxia inh | Mtb hypoxia inh growth | ugtP null kill |
| --- | --- | --- | --- | --- | --- | --- | --- |
| CCCCCN(C(=O)CCC(=O)OCc1ccccc1F)c1c(N)n(CCCC)c(=O)[nH]c1=O | -17.8 | -6.2 | ? | -3.4 | 3.6 | 4.9 | 8.5 |
| COc1ccc(NC(=O)CN(C)C(=O)CN2C(=O)C3CCCCC3C2=O)cc1 (configuration not stated) | -22.1 | -1.8 | 6916 | 6.8 | 2.5 | -2.5 | 7.1 |
| Oc1ccc2c(c1)c1c3n2CCNC3CCC1 (configuration not stated) | -6.2 | 2.8 | 3870 | 6.7 | 13.9 | 3.7 | 8.3 |
| Clc1ccc(Sc2ccccn2)cc1 | -26.7 | -5.8 | 4065 | 0.8 | -8.1 | -3.5 | 6.4 |
| O=C1CNC(=S)N1c1nc(-c2ccccc2)cs1 | -39.6 | 0.9 | 2635 | -0.5 | 2.2 | 0.9 | -7.4 |
| CC(=NNC(=O)CSc1nc(C)cc(C)n1)c1ccc2c(c1)OCCO2 | / | / | / | 1.8 | -8.4 | 4.9 | -4.8 |

Further entries.
SMILES | PrP UTR inh | BJeLR viability | Autofluor counter | Sa RN4220 lethal | Mtb hypoxia inh | Mtb hypoxia inh growth | ugtP null kill
COc1ccc(Cc2nc3ccccc3c(=O)n2N)cc1OC | -12.6 | -6.2 | 5298 | -0.9 | 7.4 | 1.6 | 2.9
COc1ccc(C(=O)Nc2ccnn2C2CCN(Cc3cn(C)nc3C)CC2)cc1 | -11.1 | 0.8 | 5813 | -0.6 | 1.9 | 7.8 | -0.5
COc1ccccc1C(=O)NNC(=O)c1nn(Cc2ccccc2)c(=O)c2ccccc12 | -23.6 | -3.7 | 4764 | -1.6 | -4.0 | 2.9 | 0.4
COc1ccccc1NC(=O)c1ccccc1NC(=O)c1ccccc1C(=O)O | -14.3 | 2.2 | 2830 | 4.6 | 3.7 | -4.0 | -1.2
O=C(C1CC1)N1CCc2cc(Br)cc(S(=O)(=O)N3CCCCCC3)c21 | -10.2 | -1.4 | 8631 | 12.3 | 15.9 | 12.0 | -3.1
COc1ccc(-n2c(Cn3c(=O)sc4ccccc43)nnc2SCC(=O)N2CCCC2)cc1 | -5.2 | / | 5663 | 3.0 | / | / | -6.9
COc1ccc(-n2c(SCc3ccc([N+](=O)[O-])cc3)nnc2-c2ccc(C)cc2)cc1 | -1.2 | -7.3 | 1951 | -6.0 | -0.9 | 10.5 | -0.6
Fc1ccccc1COc1ccc(/C=N/NC(=S)NCc2ccccc2)cc1 | -19.7 | -10.6 | 5890 | / | / | / | /
c1ccc(-c2nnsc2-c2ccccc2)cc1 | -5.4 | -3.3 | 3644 | 8.4 | 9.6 | 5.6 | 11.6
COc1ccc(CCNC(=O)Cn2cc(C(F)(F)F)cc(Cl)c2=O)cc1 | -7.8 | -6.1 | 2213 | -0.5 | 13.7 | 3.4 | 7.2
O=C1C2CCCN2C(c2ccccc2)N1c1ccccn1 (configuration not stated) | -22.5 | -21.6 | 7930 | -1.5 | 6.0 | 5.7 | -7.4
CCCn1c(C)cc(C(=O)COC(=O)c2cc(S(=O)(=O)NCC(C)C)c(Cl)cc2Cl)c1C | 0.0 | 0.1 | 2532 | -7.9 | / | / | -0.8
COC(=O)Cn1cc(C(=O)c2ccccc2F)c2ccccc21 | -13.3 | -5.8 | 4152 | -1.2 | -4.2 | 10.9 | 1.0
CC(=O)N1CCN(c2ccc(S(C)(=O)=O)cc2[N+](=O)[O-])CC1 | -21.3 | -1.7 | 4277 | 7.8 | 15.4 | 10.8 | 5.8
CC(=O)N1N=C(c2ccco2)CC1c1ccc(C)cc1 (configuration not stated) | -13.4 | -8.8 | 2678 | 8.0 | 0.8 | 2.0 | 11.5
COc1cc(Br)cc2cc(C(=O)N3CCN(C(=O)c4ccco4)CC3)c(=O)oc12 | -15.3 | 1.1 | 4511 | 26.2 | 11.9 | 13.6 | -1.5

Source: PubChem
